T cruzi repl = blocks replication of Trypanosoma cruzi | T. cruzi beta-gal in NIH3T3, luminescence, 90 h | inhibition, % (concentration not given with the values) | 300,000 tested, 1.4% active;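 active = mean inhibition across valid replicates above about 55%, limit read from the data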;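 note: signal also drops with host cell toxicity which is not excluded here; 0% = plate median of DMSO wells and 100% = zero luminescence signal; higher percent means less beta-gal luminescence so fewer parasites; stock transfer was 50 nL into about 50 µL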
rRNA inh HTS = selective bacterial rRNA inhibition in E. coli; E. coli WT GFP vs humanized-ribosome RFP mutants, fluorescence, 24 h; hits give low values; DMSO median 0, no signal -100; GFP signal change (wild-type ribosome), % (no concentration beside the values); 350,000 tested, 1.6% active; AID 720706;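 active = significant combined selectivity score with lowered wild-type GFP, culture density cut under 30%, mutant RFP and density less affected; inactive = any of these conditions unmet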; note: one replicate is shown; some compounds called inactive have numbers as strong as hits
Calb FLC = C. albicans growth modulation with fluconazole | AID 1979 | 300,000 tested, 0.57% active | C. albicans CaCi-2 (fluconazole-resistant clinical isolate) + fluconazole, Alamar Blue growth, 48 h | growth inhibition, % (no concentration beside the values);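 active = most replicates above 75%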;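 note: all wells also contain fluconazole at 8 µg/ml as a sub-toxic cotreatment; 0% = median of DMSO wells and 100% = median of geldanamycin control wells; wells of about 8 µL received 7.5 nL stock; the first replicate is given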
Beta2AR agonist = activates human beta-2 adrenergic receptor causing internalization. P07550. Am2.2-beta2AR cells, FAP receptor internalization, flow cytometry; reference of the scale not given here. response, % (test concentration not listed). 340,000 tested, 0.43% active;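 active = response above a set limit, near 3 SD of response in nonfluorescent compounds, cut at about 42% in these data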;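 note: stock transfer was 100 nL into about 11 µL; a reference agonist was the positive control; negative values mostly stem from fluorescent compounds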
LANA-H2A inh = blocks KSHV LANA binding to histone H2A/H2B; inhibition, % (test concentration not listed); cell-free LANA-H2A/H2B peptide, fluorescence polarization; 320,000 tested, 0.6% active; in the data active = inhibition mostly above about 10%, no sharp cut-off; inactive = mostly below about 6.7%;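 note: stock transfer was 7.5 nL into about 10 µL; 0% = median of vehicle wells and 100% = median of positive control wells; one replicate is shown; the record names a cut of 25% in any replicate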
Target sequence (Q9QR71 whole entry, looked up): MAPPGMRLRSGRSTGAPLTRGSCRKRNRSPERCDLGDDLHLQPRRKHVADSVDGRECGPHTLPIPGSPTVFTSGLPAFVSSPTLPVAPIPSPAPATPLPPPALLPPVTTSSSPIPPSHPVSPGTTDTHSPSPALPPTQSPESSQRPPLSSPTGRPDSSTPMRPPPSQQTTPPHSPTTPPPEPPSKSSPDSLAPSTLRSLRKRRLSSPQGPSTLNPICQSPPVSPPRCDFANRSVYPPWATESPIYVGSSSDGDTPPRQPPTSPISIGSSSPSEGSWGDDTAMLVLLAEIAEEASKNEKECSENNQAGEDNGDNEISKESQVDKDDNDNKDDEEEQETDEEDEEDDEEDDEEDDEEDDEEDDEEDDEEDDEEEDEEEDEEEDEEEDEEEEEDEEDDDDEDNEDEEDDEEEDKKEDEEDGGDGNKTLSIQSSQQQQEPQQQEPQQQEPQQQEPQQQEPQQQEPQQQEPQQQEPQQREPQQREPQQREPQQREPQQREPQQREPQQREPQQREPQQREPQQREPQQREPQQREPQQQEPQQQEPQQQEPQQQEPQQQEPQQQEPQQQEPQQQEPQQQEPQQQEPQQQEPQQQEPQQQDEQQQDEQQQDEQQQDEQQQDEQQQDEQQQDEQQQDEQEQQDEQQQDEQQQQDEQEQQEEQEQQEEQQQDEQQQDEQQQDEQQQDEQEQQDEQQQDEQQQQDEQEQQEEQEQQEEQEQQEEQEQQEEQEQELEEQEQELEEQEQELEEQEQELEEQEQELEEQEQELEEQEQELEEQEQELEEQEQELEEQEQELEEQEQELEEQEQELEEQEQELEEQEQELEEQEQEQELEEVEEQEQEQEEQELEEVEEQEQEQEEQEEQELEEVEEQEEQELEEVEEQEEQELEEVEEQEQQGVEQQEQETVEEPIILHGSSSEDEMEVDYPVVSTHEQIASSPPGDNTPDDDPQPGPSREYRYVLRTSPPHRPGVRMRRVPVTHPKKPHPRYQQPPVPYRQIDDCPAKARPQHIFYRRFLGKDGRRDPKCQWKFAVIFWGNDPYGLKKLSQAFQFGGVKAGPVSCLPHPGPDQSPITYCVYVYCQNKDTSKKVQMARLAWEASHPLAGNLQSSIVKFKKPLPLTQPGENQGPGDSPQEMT
Beta cell apopt = blocks beta cell apoptosis | 300,000 tested, 0.8% active | AID 435005 | protection from apoptosis, % (test concentration not listed) | INS-1E cytokine-induced death, ATP luminescence, 48 h; percent of positive-control rescue, neutral wells zero;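 active = all replicates at 75% or more, or half of them and the mean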;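 note: 0% = cytokine-treated negative control wells and 100% = positive control rescue; higher means more ATP so stronger rescue from cytokine killing; wells of about 40 µL received 100 nL stock; the first replicate is given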
Bfl-1 A1 inh = inhibitors of the anti-apoptotic protein A1, read as caspase activation; AID 2462; MEF A1-2A-BIM cells, Caspase-Glo 3/7 luminescence, 3 h; percent of clofoctol response, vehicle zero; 330,000 tested, 0.066% active; caspase activation, % (concentration not given with the values);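 active = over half of replicate activation scores above 10%, or exactly half above 10 with the replicate mean above 10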;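 note: wells of about 30 µL received 50 nL stock; many hits fall short of the cut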
ALR inh = inhibitors of human sulfhydryl oxidase ALR; P55789; inhibition, % (test concentration not listed); purified ALR, DTT oxidation, H2O2 HRP-luminol luminescence; 290,000 tested, 3.8% active;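 active = mean and each replicate at 75% or more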;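 note: stock transfer was 7.5 nL into about 7.5 µL; 0% = neutral wells and 100% = wells with inactivated enzyme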
rRNA inh HTS OD600 = further read-out of rRNA inh HTS, marked with its call; OD600 change, %; measured here: OD600 growth;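 optical density of the mix in the first replicate; 0 = DMSO median and -100 = no signal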
rRNA inh HTS RFP = also measured in rRNA inh HTS; calls as there; RFP signal change, %; measured here: RFP humanized mutant strains;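 first replicate; 0 = DMSO median and -100 = no signal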
The depositor's hits bear a star; . = not tested or not shown; & = joins results of further samples. Only part of the results is shown; rates above refer to the full screens.

SMILES	T cruzi repl	rRNA inh HTS	rRNA inh HTS OD600	rRNA inh HTS RFP	Calb FLC	Beta2AR agonist	LANA-H2A inh	Beta cell apopt	Bfl-1 A1 inh	ALR inh
Cc1cc(CNC(=O)COc2ccc(C#N)cc2)c2ccccc2n1	-3	7	4	0.4	53	-2	-1.7	2	-1.1	-2
Oc1ccccc1C=NC(c1ccccc1)C(O)c1ccccc1 (stereo not drawn)	-1	.	.	.	-30	-4	-0.8	-7	0.0	-23
CN(C)c1nc(N)nc(Cn2nnc(-c3ccc(C(F)(F)F)cc3)n2)n1	0	-2	-1	3.4	4	1	-0.8	0	0.8	2
CCc1ccc(OCC(=O)Nc2ccc3[nH]ncc3c2)cc1	6	-7	-3	3.9	-2	6	-1.1	-1	0.6	-2
COc1ccc(CN2CCNC(=O)C2CC(=O)NCc2cn[nH]c2-c2ccccc2)c(F)c1 (stereo not drawn)	-4	14	8	4.2	-4	1	-9.1	-1	0.1	-4
Cc1ccc(NC(=S)N(Cc2cccs2)Cc2cc3cc(C)ccc3[nH]c2=O)cc1	-7	0	-1	1.0	7	1	-3.3	0	0.7	-11
O=C(NCc1ccccc1)C(=O)NCC1OCCN1S(=O)(=O)c1ccc([N+](=O)[O-])cc1 (stereo not drawn)	60*	11	12	0.6	12	-3	-3.7	-6	0.6	-17
COc1ccc(CC(=O)c2ccc(OC3OC(CO)C(O)C(O)C3O)cc2O)cc1 (stereo not drawn)	-5	12	13	0.1	0	8	-0.6	1	-2.4	19
COCCNC(=S)Nc1ccc2nc(N3CCOCC3)cc(C)c2c1	16	0	-6	0.2	40	4	-1.1	0	0.7	85*
CCCNC(=O)c1ccc(CN2CCc3ccccc3C2)cc1	8	.	.	.	-2	-4	-1.3	-8	0.8	-23
CN(C)c1ncc(S(=O)(=O)c2ccccc2)c(=O)[nH]1	-14	3	4	0.4	-5	2	-0.4	-4	-0.7	.
CN1CCN(C(=O)/C(=C\c2ccc3c(c2)OCO3)NC(=O)c2cccs2)CC1	-7	18	22	1.2	0	-4	2.2	.	0.1	-2
O=C(NCCNC(=O)c1cc(OCC(F)(F)F)ccc1OCC(F)(F)F)Nc1ccc(OC(F)(F)F)cc1	22	.	.	.	-11	-1	-8.4	0	-0.3	2
Cc1cc(C)cc(NC(=O)CCN2C(=O)c3ccccc3S2(=O)=O)c1	6	3	4	-0.3	29	-2	2.2	1	0.2	2
Oc1c(CN2CCc3ccccc3C2)cc(Cl)c2cccnc12	51	.	.	.	83*	13	-2.7	8	-0.2	-55
COc1ccc(N2CC(C(=O)OC(C)C(=O)c3ccccc3)CC2=O)cc1 (stereo not drawn)	-1	8	8	3.1	-8	2	-0.7	0	0.8	-12
CCN(C(=O)COC(=O)c1oc2ccc(OC)cc2c1C)C1CCCCC1	-6	-7	-24	0.0	14	1	-5.4	-4	0.3	-11
O=C(CCNS(=O)(=O)c1cccs1)N1CCN(c2cccc(Cl)c2)CC1	1	1	-21	5.3	15	0	-3.6	13	-1.0	3
CC1(c2ccc(Cl)cc2Cl)OCC(Cn2ccnc2)O1 (stereo not drawn)	3	.	.	.	-10	-14	1.9	-9	0.0	-11
CN(Cc1nc(-c2ccccc2)no1)C(=O)c1ccc2c(c1)OCO2	-5	-2	-9	-2.1	-1	1	-4.4	.	0.1	6
CC(=O)Nc1cccc(NC(=O)Nc2ccc(C(C)=O)cc2)c1	9	.	.	.	-20	2	6.1	-7	-0.2	.
COc1cc(/C=N/NC(=O)c2cc[n+]([O-])cc2)ccc1O	-4	7	13	5.5	-4	4	6.3	1	0.7	99*
Nc1nc(-c2cccc(F)c2)cs1	-3	-49	-64	0.6	-13	-5	-1.0	-12	-0.1	14
CCOC(=O)c1c(NC(=O)Cn2cc([N+](=O)[O-])cn2)sc2c1CCC2	9	.	.	.	0	3	-2.4	-1	-0.1	-5
c1ccc(Cn2ccnc2-c2ccco2)cc1	-9	.	.	.	-4	-2	3.1	-4	-0.7	-5

Of the compounds above, these have fluorine:
SMILES	T cruzi repl	rRNA inh HTS	rRNA inh HTS OD600	rRNA inh HTS RFP	Calb FLC	Beta2AR agonist	LANA-H2A inh	Beta cell apopt	Bfl-1 A1 inh	ALR inh
CN(C)c1nc(N)nc(Cn2nnc(-c3ccc(C(F)(F)F)cc3)n2)n1	0	-2	-1	3.4	4	1	-0.8	0	0.8	2
COc1ccc(CN2CCNC(=O)C2CC(=O)NCc2cn[nH]c2-c2ccccc2)c(F)c1 (stereo not drawn)	-4	14	8	4.2	-4	1	-9.1	-1	0.1	-4
O=C(NCCNC(=O)c1cc(OCC(F)(F)F)ccc1OCC(F)(F)F)Nc1ccc(OC(F)(F)F)cc1	22	.	.	.	-11	-1	-8.4	0	-0.3	2
Nc1nc(-c2cccc(F)c2)cs1	-3	-49	-64	0.6	-13	-5	-1.0	-12	-0.1	14

Full records, looked up by structure. Screens in order: T cruzi repl | rRNA inh HTS | rRNA inh HTS OD600 | rRNA inh HTS RFP | Calb FLC | Beta2AR agonist | LANA-H2A inh | Beta cell apopt | Bfl-1 A1 inh | ALR inh
Profile of `O=C(CCNS(=O)(=O)c1cccs1)N1CCN(c2cccc(Cl)c2)CC1` = 1 | 1 | -21 | 5.3 | 15 | 0 | -3.6 | 13 | -1.0 | 3
Profile of `COCCNC(=S)Nc1ccc2nc(N3CCOCC3)cc(C)c2c1` = 16 | 0 | -6 | 0.2 | 40 | 4 | -1.1 | 0 | 0.7 | 85*

Continued.
SMILES	T cruzi repl	rRNA inh HTS	rRNA inh HTS OD600	rRNA inh HTS RFP	Calb FLC	Beta2AR agonist	LANA-H2A inh	Beta cell apopt	Bfl-1 A1 inh	ALR inh
CC(C)C(=O)NC(C)C(c1cccs1)N1CCN(c2ccccc2)CC1 (stereo not drawn)	-24	7	-4	-6.1	-18	0	0.0	5	-0.5	15
O=[n+]1c2c(n([O-])c3cc(F)c(N4CCCC4)cc31)CCC2	4	.	.	.	4	2	2.7	-2	-0.2	-6
Cc1cccn2c(=O)c(/C=C(\C#N)C(=O)NC3CCS(=O)(=O)C3)c(N3CC(C)OC(C)C3)nc12 (stereo not drawn)	1	-3	-12	-1.8	-1	5	6.5	-7	-0.2	-6
CCOC(=O)c1ccc(NC(=S)N(CCN2CCCCCC2)Cc2ccco2)cc1	25	-8	-12	9.7	-19	2	2.5	5	-0.5	.
CC(C)(C)C(=O)Nc1cc(NC(=O)C(C)(C)C)cc(C(=O)Nc2cc(C(=O)O)cc(C(=O)O)c2)c1	-49	.	.	.	1	-8	-5.7	2	-0.1	7
O=C(C1CCN(S(=O)(=O)c2ccccc2F)CC1)N1CCc2ccccc21	.	-21	-17	2.1	.	0	4.1	7	0.0	-2
O=c1[nH]c2ccccc2cc1-c1nnn(-c2ccc(F)cc2)n1	-16	8	5	0.9	-13	-16	-1.3	-3	-0.8	-11
Cc1ccc(C)c(NC(=O)CSc2nc(C)cs2)c1	.	1	0	0.7	.	-2	4.2	7	0.2	28
COc1ccc(C2=NNC(c3cccs3)=Nc3ccc(OC)cc32)cc1	1	.	.	.	1	-14	0.4	4	0.6	-6
Cc1ccc(S(=O)(=O)N2CCC(C(=O)NCCc3ccccn3)CC2)cc1	6	5	6	-0.6	-3	-6	3.6	4	-0.4	-12
O=C(COC(=O)CCC(=O)c1cccs1)NCCc1ccccc1	.	-4	-5	2.1	.	-2	-0.5	-6	-0.3	-1
COC(=O)C1=C(N)Oc2cc(C)n(CC3CCCO3)c(=O)c2C1c1ccccc1OC (stereo not drawn)	-9	.	.	.	-9	1	0.0	0	0.0	0
CCOC(=O)Nc1ccc2c(c1)N(C(=O)CN(CC)CC)c1ccccc1CC2	13	19	5	0.6	-1	1	-6.4	-7	1.4	4
CC(C)NC(=O)N(C)C[C@H]1Oc2c(cccc2N(C)C)C(=O)N([C@H](C)CO)C[C@@H]1C	.	3&16	12&10	2.9&16	.	-4	1.7	8	0.1	0
N#CC(C#N)=NNc1ccc(S(=O)(=O)N2CCCCC2)cc1	-17	-60	-80	-36	2	23	-2.8	-3	0.9	24
CC(=O)Nc1ccc(S(=O)(=O)Nc2nc3ccc(C)cc3s2)cc1	-24	-11	-7	-7.3	10	-8	-3.5	-6	-0.3	1
COCc1[nH]nc2c1C(c1ccccc1OC)C(C#N)=C(N)O2 (stereo not drawn)	-28	.	.	.	2	8	-3.0	-4	1.2	8
Fc1ccc(NC(=S)Nc2cccc(Cl)c2)cc1	-34	.	.	.	-25	7	1.3	-3	0.1	0
Cc1c(-c2ccccc2)[n+](=O)c2c(n1[O-])CCCC2	5	4	0	-2.3	3	-2	2.6	-4	-0.3	-8
CCCC(=O)Nc1ccc2c(c1)nc(CCNC(=O)c1ccco1)n2C	-14	-1	0	-3.5	-2	1	2.1	0	0.0	0
O=C1OC[C@H](Cc2ccc3c(c2)OCO3)/C1=C\c1ccc2c(c1)OCO2	-17	.	.	.	-3	7	-6.7	33	0.1	-2
Cc1ccc(-c2nc(-c3cccnc3)sc2CC(=O)O)cc1	-10	-8	-9	-5.8	14	-6	-4.6	-4	-0.8	99*
CC(CNC(=O)CCS(=O)(=O)c1ccc2c(c1)oc(=O)n2C)c1ccccc1 (stereo not drawn)	0	7	14	-1.1	-25	3	2.8	-10	0.0	-27
COC(=O)c1sc2nc(SCc3cccc(F)c3)n(N)c(=O)c2c1C	0	.	.	.	0	-3	-3.1	-7	0.1	0
O=C(c1cccc2c1-c1ccccc1/C2=N/O)N1CCCCC1	-12	.	.	.	18	7	-0.5	-1	0.0	48
Cc1[nH]c2ccccc2c1-c1nc(-c2ccc(Cl)cc2)nnc1-c1ccccc1	-2	.	.	.	17	.	1.8	-2	0.3	-28
Brc1ccc2nc(-c3ccncc3)c(NC3CCCC3)n2c1	47	-2	1	-14	-27	-10	0.9	18	-0.1	.

A portion from further up, as a working copy:
SMILES	T cruzi repl	rRNA inh HTS	rRNA inh HTS OD600	rRNA inh HTS RFP	Calb FLC	Beta2AR agonist	LANA-H2A inh	Beta cell apopt	Bfl-1 A1 inh	ALR inh
CC(C)C(=O)NC(C)C(c1cccs1)N1CCN(c2ccccc2)CC1 (stereo not drawn)	-24	7	-4	-6.1	-18	0	0.0	5	-0.5	15
O=[n+]1c2c(n([O-])c3cc(F)c(N4CCCC4)cc31)CCC2	4	.	.	.	4	2	2.7	-2	-0.2	-6
Cc1cccn2c(=O)c(/C=C(\C#N)C(=O)NC3CCS(=O)(=O)C3)c(N3CC(C)OC(C)C3)nc12 (stereo not drawn)	1	-3	-12	-1.8	-1	5	6.5	-7	-0.2	-6
CCOC(=O)c1ccc(NC(=S)N(CCN2CCCCCC2)Cc2ccco2)cc1	25	-8	-12	9.7	-19	2	2.5	5	-0.5	.
CC(C)(C)C(=O)Nc1cc(NC(=O)C(C)(C)C)cc(C(=O)Nc2cc(C(=O)O)cc(C(=O)O)c2)c1	-49	.	.	.	1	-8	-5.7	2	-0.1	7

Source: PubChem
